Screens from PubChem.
E coli growth: inhibitors of Escherichia coli growth | AID 1053175 | OD600, 23 h; stronger effect = lower value | 330,000 compounds, 0.21% hits | OD600 absorbance (test concentration not listed);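 active means OD600 absorbance below the run mean of sample wells minus 3.6 SD, in any replicate, cut at about 0.56 in these data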;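 further: stock transfer was 300 nL into about 60 µL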
AF4-AF9 inh: blocks AF4 peptide binding to human AF9; P42568; AlphaScreen, biotin-AF4 peptide binding to FLAG-AF9; inhibition, % at 10 µM; 350,000 compounds, 0.47% hits; AID 651704;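 active means every replicate reaching a set inhibition limit, whatever the replicate mean, cut at about 25% in these data; inconclusive means mean inhibition reaches that limit but some replicates miss it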;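 further: 0% = plate neutral control median and 100% = total signal loss; the record names both 10 and 1 µM as test concentration; the first replicate is given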
Target sequence (P42568 whole entry, looked up): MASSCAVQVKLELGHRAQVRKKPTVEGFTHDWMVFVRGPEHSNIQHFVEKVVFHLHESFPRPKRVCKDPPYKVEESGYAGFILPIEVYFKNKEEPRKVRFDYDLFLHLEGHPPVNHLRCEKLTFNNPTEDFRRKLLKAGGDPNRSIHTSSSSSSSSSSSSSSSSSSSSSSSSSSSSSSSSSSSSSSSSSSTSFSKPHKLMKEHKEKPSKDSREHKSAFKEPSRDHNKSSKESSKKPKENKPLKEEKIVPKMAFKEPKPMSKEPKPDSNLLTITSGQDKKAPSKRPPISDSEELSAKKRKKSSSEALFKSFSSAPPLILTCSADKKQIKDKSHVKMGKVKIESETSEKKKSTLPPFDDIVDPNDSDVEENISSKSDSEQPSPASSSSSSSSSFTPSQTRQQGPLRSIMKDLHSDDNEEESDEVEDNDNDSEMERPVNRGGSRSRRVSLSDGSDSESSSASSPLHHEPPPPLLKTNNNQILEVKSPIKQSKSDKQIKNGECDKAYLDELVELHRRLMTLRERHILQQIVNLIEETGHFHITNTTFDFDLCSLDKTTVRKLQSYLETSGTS
ALR inh: inhibitors of human sulfhydryl oxidase ALR. P55789. 290,000 compounds, 3.8% hits. inhibition, % (test concentration not listed). purified ALR, DTT oxidation, H2O2 HRP-luminol luminescence;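 active means mean and each replicate at 75% or more; inconclusive means only one of the two met; inactive means neither met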;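 further: stock transfer was 7.5 nL into about 7.5 µL; 0% = neutral wells and 100% = wells with inactivated enzyme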
Target sequence (P55789 whole entry, looked up): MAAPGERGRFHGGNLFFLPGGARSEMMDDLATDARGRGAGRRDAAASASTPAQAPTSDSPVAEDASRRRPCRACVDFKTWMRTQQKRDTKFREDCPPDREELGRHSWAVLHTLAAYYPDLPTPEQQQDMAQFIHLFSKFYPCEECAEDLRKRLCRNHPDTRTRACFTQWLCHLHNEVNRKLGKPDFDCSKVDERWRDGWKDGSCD
Vif TR-FRET: HIV-1 Vif–A3G interaction blockers – biochemical, TR-FRET, GST-Vif 1-94, biotin-A3G peptide, dose response retest, primary screen (AID 1117319); TR-FRET GST-Vif / biotin-A3G peptide binding; higher % means a stronger effect; test concentration not given here; strong numbers were not always called active; one-dose inhibition, %; IC50 in µM for titrated hits; 260,000 compounds, 0.57% hits;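 active means above the screen mean plus three standard deviations and confirmed in dose response; inconclusive means results disagree or hit not tested in dose response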;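 further: Vif residues 1-94 fused to GST binding biotinylated APOBEC3G peptide 110-148; 0% = full assay without inhibitor and 100% = GST in place of GST-Vif; retest series ran down from 100 µM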
FGF22 binding: FGF22 (human) thermal shift binding; 340,000 compounds, 1.5% hits; Q9HCT0; AID 651658; recombinant FGF22 thermal shift, SYPRO orange fluorescence; percent of sucrose octasulfate shift, DMSO zero; calls only at 9.99 µM;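 active means melting point raised past a set limit in the mean and every replicate; inconclusive means no clear call; three in four hits are not shown here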
Target sequence (Q9HCT0 whole entry, looked up): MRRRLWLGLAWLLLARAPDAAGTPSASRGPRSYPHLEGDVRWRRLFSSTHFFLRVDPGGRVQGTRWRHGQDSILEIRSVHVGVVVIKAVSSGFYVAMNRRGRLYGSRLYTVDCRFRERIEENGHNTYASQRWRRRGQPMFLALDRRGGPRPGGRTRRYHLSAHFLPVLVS
HNF4A DNA FP: change in binding of human HNF4 alpha to DNA. P41235. HNF4a-FITC DNA binding, fluorescence polarization, 1 h. activity change, % at 10 µM. 360,000 compounds, 0.3% hits. AID 1224865; in the data active means activity change above about 30%, passing the limit was not always enough;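 further: controls were the assay level and a saturating level of protein; the project sought stronger binding though the title names inhibitors; some compounds called inactive have numbers as strong as hits; positive values seem to mean higher polarization but the record does not say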
Ecoli rRNA inh: inhibitors of bacterial rRNA selective over humanized ribosomes. AID 720706. 350,000 compounds, 1.6% hits. GFP signal change (wild-type ribosome), % (no concentration beside the values). E. coli WT GFP vs humanized-ribosome RFP mutants, fluorescence, 24 h; stronger effect = lower value; DMSO median 0, no signal -100;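 active means significant combined selectivity score with lowered wild-type GFP, culture density cut under 30%, mutant RFP and density less affected; inactive means any of these conditions unmet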; further: one replicate is shown; some compounds called inactive have numbers as strong as hits
Ecoli rRNA inh OD600: also measured in Ecoli rRNA inh; calls as there; OD600 change, %; measured here: OD600 growth;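 optical density of the mix in the first replicate; 0 = DMSO median and -100 = no signal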
Ecoli rRNA inh RFP: recorded beside Ecoli rRNA inh, whose call it bears; RFP signal change, %; measured here: RFP humanized mutant strains;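 first replicate; 0 = DMSO median and -100 = no signal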
* = called active by the depositor; i = inactive; ? = inconclusive; · = no result given; & = joins results of further samples.

E coli growth	AF4-AF9 inh	ALR inh	Vif TR-FRET	FGF22 binding	HNF4A DNA FP	Ecoli rRNA inh	Ecoli rRNA inh OD600	Ecoli rRNA inh RFP	compound
0.66	-2.0	-18	·	i	-0.6	·	·	·	CN1C(=O)c2cccc3c(Br)ccc(c23)C1=O
0.67	0.4	-22	·	·	2.5	6	7	-1.8	Cc1cc([N+](=O)[O-])ccc1NC(=O)c1csc(C)c1C
·	1.0	-1	?	i	1.8	·	·	·	Cc1ccc2oc(-c3cccc(NC(=O)/C=C/c4cccc([N+](=O)[O-])c4)c3C)nc2c1
0.63	-3.6	-8	6%	i	-6.3	-11	-50	-1.3	Cc1cccc(C2NC(c3cccc(C)c3)C(C)C(=O)C2C)c1 (centres undefined)
·	-48	-6	4%	i	-1.1	6	11	24	COC(=O)N1[C@H](C)C=C[C@]1(Cc1ccccc1)C(=O)O
0.75	·	-3	14%	·	-2.8	·	·	·	O=C(CSc1nc(-c2ccco2)cc(C(F)(F)F)n1)Nc1ccc2c(c1)CCC2
0.66	-5.9	-43	4%	i	0.5	-1	-2	-1.7	CCCN(CC(=O)Nc1ccccc1C)C(=O)COC(=O)CSc1ccc([N+](=O)[O-])cc1
·	-6.7	·	2%	i	-1.5	·	·	·	Cc1ccc(S(=O)(=O)N2CCN(C(=O)c3cc(C4CC4)nn3-c3ccccc3)CC2)cc1
0.68	-9.1	·	0%	i	-2.2	7	6	0.1	CSc1ccccc1NC(=O)CN1C(=O)C2CC=CCC2C1=O (centres undefined)
0.65	·	-22	4%	·	-1.2	·	·	·	C=CCOc1ccc2ccccc2c1CNc1ncn[nH]1
0.73	-6.6	2	·	i	2.5	16	5	1.0	C=CCN1C(=O)C(CC(=O)NCC)SC1=Nc1cc(Cl)ccc1Cl (centres undefined)
·	0.9	·	·	i	0.2	-1	-12	-8.4	CN(Cc1ccccc1)C(c1cc2ccccc2o1)c1nnnn1C(C)(C)C (centres undefined)
·	34*	·	·	i	·	-3	-9	3.4	O=C(C[C@@H]1CC[C@@H]2[C@H](COC[C@@H](O)CN2S(=O)(=O)c2ccccc2)O1)NCC1CCCCC1
0.7	5.3	·	·	i	-0.9	-28	-44	-6.0	O=c1oc(/C=C/c2ccccc2)nc2ccccc12
0.65	-37	-3	16%	i	7.0	-37*	13*	-0.2*	Cc1ccc(SCC(=O)Nc2ccc(S(=O)(=O)Nc3nccs3)cc2)cc1
·	0.4	·	·	i	·	-1	1	-0.9	COc1ccc(S(=O)(=O)Nc2cccc3c2O[C@@H](CN(C)CC2CCCCC2)[C@H](C)CN([C@@H](C)CO)C3=O)cc1
0.73	2.4	·	-8%	i	-3.0	-1	-3	-3.0	Cc1cc(C)cc(NC(=S)N(CCCN2CCN(C)CC2)Cc2cccs2)c1
0.7	11	·	·	i	1.2	-12	-10	3.2	CCN(CC(=O)Nc1ccc(NC(C)=O)cc1)C(=O)c1cc([N+](=O)[O-])ccc1Sc1ccc(Cl)cc1
0.7	-0.3	4	·	i	2.9	-2	10	-3.3	COc1cc(C(=O)Nc2cc(OC)c(OC)c(OC)c2)ccc1OCc1c(C)noc1C
0.71	·	0	-5%	·	-2.4	·	·	·	Cc1ccc(-n2c(SCC(=O)Nc3ccc4c(c3)OCO4)nnc2-c2cccs2)cc1
0.72	-7.8	·	-1%	i	1.7	10	8	0.6	O=C(O)C(CCc1ccccc1)(Cc1ccccc1)C(=O)O
0.62	32*	0	·	·	15	-54	-81	-16	Fc1ccc(N2CCN(C3=Nc4cccc5cccc3c45)CC2)cc1
0.57	1.3	18	·	i	-2.6	1	12	-2.3	NCCNc1ccc(C(=O)N2c3ccccc3Sc3ccccc32)cc1[N+](=O)[O-]
0.69	-1.2	1	-11%	i	3.5	2	7	0.9	CC(=O)c1cccc(NC(=O)C(C)OC(=O)c2cccc(S(=O)(=O)N3CCN(C)CC3)c2)c1 (centres undefined)
·	1.5	98*	·	i	-12	-5	4	-3.7	Cc1ccc(C2C(C(=O)c3cc4ccccc4o3)=C(O)C(=O)N2c2cc(C)on2)cc1 (centres undefined)
0.74	0.3	6	2%	i	0.3	-4	-1	-1.0	Cc1ccc(S(=O)(=O)Nc2nc(C)c(C)s2)cc1
0.77	·	-9	5%	·	-1.0	·	·	·	COCCn1c(=NC(=O)CSC(C)=O)sc2cc(F)ccc21
0.62	-0.8	23	3%	i	-4.9	1	4	-0.9	CCOC(=O)c1oc2ccccc2c1NC(=O)CCl
0.63	·	99*	-5%	·	-3.7	·	·	·	O=C(Nc1nc2ccc(F)cc2s1)C1CCCO1 (centres undefined)
0.77	·	-13	>60µM*	·	4.7	·	·	·	COc1ccc(NC(=O)c2c(OC)cccc2OC)c(OC)c1
0.68	·	-17	1%	·	0.5	·	·	·	Cc1nc2ncnn2c(C)c1CCC(=O)NCc1ccccc1
0.68	-5.5	99*	·	i	4.7	-2	7	-2.9	COc1ccc(-c2nc(CS(=O)(=O)CC(=O)NC3CCCCCC3)c(C)o2)cc1
·	-4.7	-8	·	i	-3.5	3	-8	-0.1	Cc1ccc(S(=O)(=O)NCC(=O)NNC(=O)c2ccccc2Cl)cc1C
·	-4.1	·	·	i	3.3	16	18	0.8	CC(C)CNC(=O)C1(C)CCCN1C(=O)c1ccncc1 (centres undefined)
0.66	-1.7	-2	-1%	i	1.5	10	12	1.5	CCn1ncc(S(=O)(=O)NCc2ccccc2Cl)c1C
·	-0.1	·	·	i	·	-1	-7	-1.0	C[C@@H]1CN([C@H](C)CO)S(=O)(=O)c2ccc(C#CCN(C)C)cc2O[C@H]1CN(C)Cc1cccnc1
·	0.3	·	·	i	·	-10	-50	20	C[C@H](CO)N1C[C@H](C)[C@H](CN(C)Cc2ccccc2)Oc2ccc(NC(=O)Cc3ccccc3)cc2CC1=O
0.69	-1.0	5	·	i	5.5	16	9	1.3	COc1cc(NC(=O)Cn2nc(-c3ccc(F)cc3)ccc2=O)ccc1-n1cnnn1
·	8.6	90*	1%	i	0.6	-6	-8	-4.5	CN(C)c1ccc(/C=N/NS(=O)(=O)c2ccc(Br)cc2)cc1
0.63	-3.4	·	·	i	1.4	-1	0	-1.5	COc1ccc(-n2nc(C(=O)NCC(=O)Nc3cc(C)ccc3OC)c3ccccc3c2=O)c(OC)c1
0.75	7.6	·	·	i	1.8	·	·	·	COc1ccc2c(CSc3nnc(-c4cccnc4)n3-c3ccccc3F)cc(=O)oc2c1
·	-1.1	·	·	i	·	0	3	0.0	CN(C)C(=O)[C@@H]1[C@@H](CO)[C@@H]2Cn3c(ccc(-c4cncnc4)c3=O)[C@@H]2N1Cc1ccccc1F
0.7	1.6	1	·	i	0.0	1	2	1.7	COc1ccc(C(C)(C)C)cc1NC(=O)CCNC(=O)c1ccco1
0.63	·	99*	·	·	-3.5	·	·	·	COc1ccccc1NCCC(=O)OCC(=O)NC1CCCCC1
0.75	·	·	-1%	·	-1.0	·	·	·	CCOC(=O)c1cc2cc(-c3c(C(=O)OCC)oc4cc(O)cc(O)c4c3=O)ccc2o1
·	-4.0	·	·	i	·	0	2	-0.4	C[C@H]1CN([C@@H](C)CO)C(=O)c2ccccc2-c2ccccc2CO[C@@H]1CN(C)C(=O)NC1CCCCC1
0.7	·	·	-4%	·	-2.6	·	·	·	CCOc1cc(NC(=O)c2ccccn2)c(OCC)cc1NC(=O)CC(C)C
0.69	3.9	·	-2%	i	1.9	14	8	0.2	CC1(C)CC(NC(=O)C23CCC(C)(C2Br)C3(C)C)CC(C)(C)N1 (centres undefined)

3 entries out of the list, arranged by formula weight, falling:
E coli growth	AF4-AF9 inh	ALR inh	Vif TR-FRET	FGF22 binding	HNF4A DNA FP	Ecoli rRNA inh	Ecoli rRNA inh OD600	Ecoli rRNA inh RFP	compound
0.75	7.6	·	·	i	1.8	·	·	·	COc1ccc2c(CSc3nnc(-c4cccnc4)n3-c3ccccc3F)cc(=O)oc2c1
·	-6.7	·	2%	i	-1.5	·	·	·	Cc1ccc(S(=O)(=O)N2CCN(C(=O)c3cc(C4CC4)nn3-c3ccccc3)CC2)cc1
0.57	1.3	18	·	i	-2.6	1	12	-2.3	NCCNc1ccc(C(=O)N2c3ccccc3Sc3ccccc32)cc1[N+](=O)[O-]

(cont.)
E coli growth	AF4-AF9 inh	ALR inh	Vif TR-FRET	FGF22 binding	HNF4A DNA FP	Ecoli rRNA inh	Ecoli rRNA inh OD600	Ecoli rRNA inh RFP	compound
·	1.5	·	·	i	·	-1	-5	6.3	Cc1cccc(-c2ccc([C@@H]3[C@@H](CO)N4CCCCN(C(=O)c5ccc6c(c5)OCO6)C[C@@H]34)cc2)c1
0.63	-1.4	·	-16%	i	-3.3	1	0	2.5	O=C(Cc1cccc2ccccc12)NN1C(=O)/C(=C\c2cccnc2)SC1=S
0.72	·	-8	-8%	·	-3.0	·	·	·	COc1cc(CNn2nnnc2N)cc(Br)c1OCC(=O)NC(C)(C)C
0.82	·	·	32%	·	-1.9	·	·	·	Cc1ccc(Oc2ncc(-c3ccc(Cl)cc3)cn2)cc1
0.65	1.0	-1	-10%	i	-0.9	1	9	-2.7	CCOc1ccc(CN2CCC(n3nccc3NC(=O)C3CC3)CC2)cc1CO
·	-1.0	·	·	i	·	1	-8	0.4	COCC(=O)Nc1ccc2c(c1)[C@H]1C[C@H](CC(=O)NCc3cccnc3)O[C@H](CO)[C@H]1O2
·	·	-4	-2%	·	2.4	·	·	·	Cn1cccc1/C=N/NC(=O)c1sc2ccccc2c1Cl
·	-0.6	·	10%	i	-0.5	2	5	-0.7	Cc1[nH]c2ccccc2c1C(=O)C(=O)NCc1ccncc1
0.7	·	-1	-4%	·	34	·	·	·	CCOC(=O)C1CCCN(C(=O)C2CCCN(S(C)(=O)=O)C2)C1 (centres undefined)
0.71	-5.5	-2	-3%	·	1.3	-2	0	1.0	COc1cccc(C2=NOC(C(=O)N3CCc4ccccc4C3)C2)c1 (centres undefined)
·	-3.7	0	·	i	-2.7	-2&-1	-1&3	-2.6&0.2	COc1ccc(S(=O)(=O)Nc2cccc3c2O[C@H](CN(C)C(=O)Nc2ccc(C(F)(F)F)cc2)[C@@H](C)CN([C@H](C)CO)C3=O)cc1
·	-0.6	·	·	i	·	3	5	-1.8	COCC(=O)Nc1ccc2c(c1)C(=O)N(C)[C@@H]1CC[C@H](CC(=O)NCC3CC3)O[C@H]1CO2
·	-6.0	·	·	i	·	6	14	-0.4	C/C=C/c1cnc2c(c1)C(=O)N([C@H](C)CO)C[C@H](C)[C@H](CN(C)C(=O)c1cccnc1)O2

Gathered by group, those above containing a CF3 group
E coli growth	AF4-AF9 inh	ALR inh	Vif TR-FRET	FGF22 binding	HNF4A DNA FP	Ecoli rRNA inh	Ecoli rRNA inh OD600	Ecoli rRNA inh RFP	compound
0.75	·	-3	14%	·	-2.8	·	·	·	O=C(CSc1nc(-c2ccco2)cc(C(F)(F)F)n1)Nc1ccc2c(c1)CCC2
·	-3.7	0	·	i	-2.7	-2&-1	-1&3	-2.6&0.2	COc1ccc(S(=O)(=O)Nc2cccc3c2O[C@H](CN(C)C(=O)Nc2ccc(C(F)(F)F)cc2)[C@@H](C)CN([C@H](C)CO)C3=O)cc1

A portion of the library; count on the stated rates, not on these rows.
